Tgondii IFNg = T. gondii growth inhibition with IFN-gamma, primary screen, cell-based | Toxoplasma gondii growth in IFN-gamma-treated host cells; active compounds read low; reference of the scale not given here | activity change, negative = inhibition, %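 (about 20 µM by stock and volumes)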 | AID 1259416, 2018 | 69,000 tested, 3.8% active;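 active means below -70%; inconclusive means fit judged invalid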;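 further: host cells are HeLa cells infected with Toxoplasma gondii; parasite growth read as luciferase light; one replicate is shown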
The depositor's hits bear a star; i = inactive; u = inconclusive.

canonical_smiles,Tgondii IFNg
CS(=O)(=O)N1CCCn2cnc(COCc3ccco3)c2C1,3
CC(NC(=O)c1ccc(OC2CCN(Cc3ccccn3)CC2)cc1)c1ccccc1 (stereo not given),-2
COc1ccc(CSCC(=O)c2ccc(Cl)c(Cl)c2)c(Cl)c1OC,1
CCN1C(=O)CCc2cc(NC(=O)c3ccc(F)c(Cl)c3)ccc21,-37
CC(C)NC(=O)N1[C@H](CO)[C@@H](c2ccccc2-c2ccc(F)cc2)[C@@H]1C#N,10
CCCCN(Cc1ccccc1)C(=O)c1cc2cccnc2n(Cc2ccc(F)cc2)c1=O,20
C[C@@H]1CCCCO[C@H](CN(C)S(=O)(=O)c2ccc(F)cc2)[C@@H](C)CN([C@@H](C)CO)C(=O)c2cc(N(C)C)ccc2O1,i
CON,17
CN1C(=O)CCc2cc(NC(=O)c3cc4ccccc4[nH]3)ccc21,79
COc1ccc(-c2nc(CN(c3ccccc3)S(=O)(=O)c3cccs3)c(C)o2)cc1,-6
Cc1n[nH]c(C)c1S(=O)(=O)N1CCN(c2ccccc2C(F)(F)F)CC1,2
CC(C)CN(CC(C)C)C(=O)c1cc2cccnc2n(Cc2ccc(F)cc2)c1=O,44
CN1CCN(c2ccc(C(=O)N3CCC(N4CCOCC4)CC3)cn2)CC1=O,82
O=C(CCc1ccccc1)N1CCC(c2cc(C(F)(F)F)n3ncnc3n2)CC1,-1
C[C@H]1CN([C@@H](C)CO)C(=O)c2ccccc2-c2ccccc2CO[C@H]1CN(C)C(=O)Nc1ccc(-c2ccccc2)cc1,-62
Cc1nc(CC(=O)N2CCC(c3ccc(C(=O)N(C)C)cn3)CC2)cs1,2
O=C1CCCn2cc(nn2)COCCN1,-33
O=C(C[C@H]1CC[C@@H]2[C@H](COC[C@H](O)CN2CCC(F)(F)F)O1)NCc1ccc2c(c1)OCO2,-6
O=C(NCCc1cccnc1)c1cc(-c2ccn[nH]2)n2ccccc12,39
Nc1cnc(-c2ccc(-c3ccn[nH]3)cc2)cn1,-40
CCN1CC(NC(=O)c2c(O)cccc2O)CC1=O (stereo not given),-2
C=CCN1C(=O)CCC12CCCN(C(=O)c1ccc[nH]1)CC2 (stereo not given),-57
c1ccc(-c2[nH]ncc2CN2CCc3ccccc3C2)cc1,27
Cc1cccc(-c2ccc3cc(C(=O)CCN4CCOCC4)c(-c4cocn4)n3c2)c1,362
CCCNC(=O)c1ccc(N2CCNC(C(=O)O)C2)nc1 (stereo not given),6
COc1ccc(C(=O)Nc2ccc3c(c2)C(=O)N(C)[C@H]2CC[C@@H](CC(=O)NCC4CC4)O[C@@H]2CO3)cc1,-35
Nc1cnn(C2OC(COC(=O)c3ccccc3)C(O)C2O)c(=O)n1 (stereo not given),30
COc1cncc(C(=O)NCc2ccccc2Cl)c1,-22
CS(=O)(=O)c1ccc(C(=O)Nc2ccc(Cl)c(-c3ccccn3)c2)c(Cl)c1,13
CC(C)c1ccc(CN2CCC(CNC(=O)C3(N)CCC3)C2)cc1 (stereo not given),-8
O=C(Nc1nc2c(s1)COc1ccccc1-2)c1ncoc1-c1ccc(F)cc1,39
CC1=C(C(=O)NCCCN2CCCC2)C2(CCN(S(C)(=O)=O)CC2)OC1=O,16
O=S(=O)(c1cccs1)N1CCC2(CC1)Nc1cccnc1NC2=NC1CCCC1,94
O=C(c1ccccc1Cl)N1CCN(S(=O)(=O)c2cc3c4c(c2)CCC(=O)N4CCC3)CC1,-37
Cc1cc(C)cc(NC(=O)CN2C(=O)CCc3cc(S(=O)(=O)N4CCCCC4)ccc32)c1,-16
CCCC(=O)N1CCc2c([nH]c3ccccc23)C1c1ccc(OCC)cc1 (stereo not given),-37
CN1C=NC(O)(c2ccccc2)c2cc(Cl)ccc21 (stereo not given),19
COCC1CN(CC2CC2)Cc2nccn2C1 (stereo not given),130
Cn1ccc2c(-c3ncc(F)c(N4CCOCC4)n3)ccnc21,145
O=C(Cc1ccc(O)c(F)c1)N1CCC2(CCNCC2)CC1,10
COc1ccc(-c2nnc(-c3cc4c(ccc5ccccc54)oc3=O)o2)cc1,1
COc1cc(OC)c(OC)cc1CN1CCOc2ccc(CN3C[C@@H](C)O[C@@H](C)C3)cc2C1,-14
O=C(c1cccc(F)c1)N1CC2(C1)[C@H](c1ccccc1)[C@@H](CO)N2Cc1ccccn1,11
O=C(O)C1CSC(c2ccccc2)=N1 (stereo not given),38
CC(C)NC(=O)Nc1cccc2c1O[C@H](CN(C)C(=O)Nc1ccccc1)[C@@H](C)CN([C@@H](C)CO)C2=O,-12
O=C(NCC[C@H]1CC[C@H](NC(=O)c2ccccc2F)[C@@H](CO)O1)c1cnccn1,-15
COC(=O)c1ccccc1NC(=S)N(CCO)Cc1cc2ccc(C)c(C)c2[nH]c1=O,-7
COc1ccccc1C#Cc1ccc2c(c1)[C@@H]1[C@@H](CCN1S(=O)(=O)c1cn(C)cn1)[C@@H](CO)N2,-6
Cc1cccc(Cl)c1S(=O)(=O)Nc1ccc2c(c1)CCC(=O)N2C,-39
CCOc1ccccc1NC(=O)CN1C(=O)CCc2cc(Br)ccc21,33
Cc1nc(CO[C@H]2CN(S(C)(=O)=O)[C@H]3COC[C@@H]23)cs1,-49
CCCSCCCNc1nc(-c2nnc(-c3ccccc3)o2)nc2ccccc12,-92*
CC(=O)NCCc1csc(C2CCCN(C(=O)/C=C/c3ccc(C)cc3)C2)n1 (stereo not given),51
C[C@H](CO)N1C[C@H](C)[C@H](CN(C)Cc2cccc3c2OCCCO3)OCc2cnnn2CCCC1=O,16
C[C@@H](NC(=O)C[C@@H]1CC[C@H]2[C@@H](COC[C@@H](O)CN2Cc2ccc(C(F)(F)F)cc2)O1)c1ccccc1,10
COc1ccc(CC(=O)Nc2ccc3c(c2)CCC(=O)N3C)c(Cl)c1,-11
COc1ccccc1N1CCN(C(=O)CN(Cc2ccccc2)S(C)(=O)=O)CC1,-40
CCn1ncc(S(=O)(=O)N2CCCC(c3ccccc3)C2)c1C (stereo not given),-10
CC(=O)NC(C(=O)NCC(N)=O)C(C)C (stereo not given),11
COc1ccccc1C1CN(Cc2cccc(O)c2)Cc2ccccc2O1 (stereo not given),-61

Next section
canonical_smiles,Tgondii IFNg
O=C(CN(Cc1ccccn1)CC1CCCO1)Nc1nc2ccccc2[nH]1 (stereo not given),-34
O=S(=O)(c1ccccc1Cl)N1CCc2nc(-c3ccccc3)sc2C1,-15
COc1ccc2c3c([nH]c2c1)[C@@H](CO)N(C(=O)c1ccc(F)cc1)CC31CCN(Cc2cccnc2)CC1,-25
Cc1cc(C)n(CCCC(=O)N2CCCC3(CC2)CN(C)C(=O)O3)n1 (stereo not given),-52
CN(Cc1ccc2ccccc2n1)C(=O)c1cc(COc2ccccc2)[nH]n1,-20
C=C[C@@](C)(/C=C/c1ccc(O)cc1)CCC=C(C)C,-7
CNc1cc2ncnc(Nc3cccc(Br)c3)c2cc1N,-1
COc1cccc(C(=O)N(C)C(C)c2c(C)n[nH]c2C)c1OC (stereo not given),-3
CN(C)c1ncnc2c1CCN(CC1CCOC1)CC2 (stereo not given),2
CCOC(=O)c1cnn(-c2nc(C)c(C(=O)OCC)s2)c1N,42
O=C(C1CC1)N1CCc2c(CNc3ncccn3)n[nH]c2C1,-1
NC(=O)c1cccc(N)c1,13
NCC[C@@H]1CC[C@H](NS(=O)(=O)c2ccc(Cl)cc2)[C@H](CO)O1,-21
c1nnnn1C12CC3CC(CC(C3)C1)C2,-5
COc1ccc(NC(=O)N(C)C[C@@H]2OCCCC[C@H](C)Oc3ccc(NC(=O)c4ccncc4)cc3C(=O)N([C@@H](C)CO)C[C@H]2C)cc1,i
CN(Cc1ccccn1)C(=O)c1cc2c(c3ccccc3n2C)n1-c1ncccn1,-1
COc1cccc(-c2cnc(N(C)C)nc2C2CCCN(C(=O)Cc3c(C)noc3C)C2)c1 (stereo not given),-13
COc1cccc(NC(=O)N2CCC3(CC2)CN(Cc2cccnc2)CC32CCNC2=O)c1 (stereo not given),16
CC1N(c2cnn(C)c2)C(=O)COC12CCN(S(C)(=O)=O)CC2 (stereo not given),14
COC1CCC(C(=O)NCc2cc(N(C)C)nc(-c3ccncc3)n2)CC1 (stereo not given),9
CCNC(=O)[C@@H]1C[C@H](N)CN1C(=O)C1CCN(Cc2ccco2)CC1,u
Cc1ccc(S(=O)(=O)Nc2c(C)ccc3nsnc23)cc1,9
CC(C)c1cc(C2CC(=O)Nc3c2cnn3Cc2ccccc2Cl)on1 (stereo not given),6
CCCN(CC#Cc1ccccc1)C(=O)c1cccn1C,64
O=C(Nc1cc(F)ccc1F)N1CCCCN2[C@H](C1)[C@H](c1ccc(C3=CCCCC3)cc1)[C@@H]2CO,2
O=C(CCN1CCCCC1)NCC[C@@H]1CC[C@@H](NS(=O)(=O)c2cccc(Cl)c2)[C@H](CO)O1,7
O=C(COc1ccccc1)N1CCN(S(=O)(=O)c2cc3c4c(c2)CCC(=O)N4CCC3)CC1,u
COc1ccc(NC(=S)N2CCN(C(c3ccccc3)c3ccccc3)CC2)c(OC)c1,-19
COc1ccc2cc[nH]c2c1,-8
CSC1=NC(c2ccc(N(C)C)cc2)NN1 (stereo not given),201

Structures from the list above that have bromine:
canonical_smiles,Tgondii IFNg
CCOc1ccccc1NC(=O)CN1C(=O)CCc2cc(Br)ccc21,33
CNc1cc2ncnc(Nc3cccc(Br)c3)c2cc1N,-1

Further records.
canonical_smiles,Tgondii IFNg
Cc1ccc(S(=O)(=O)N(C)C[C@H]2Oc3c(NS(C)(=O)=O)cccc3C(=O)N([C@@H](C)CO)C[C@H]2C)cc1,13
O=C1Nc2ccccc2NC12CCN(Cc1cc3n(n1)CCCNC3)CC2,1
c1ccc(COC2CCCN(Cc3ccsc3)C2)nc1 (stereo not given),7
COc1ccc(C(=O)N2CCCN(CC3CC3)C(C(C)C)C2)c(OC)c1 (stereo not given),0
Cc1ccsc1CN1C[C@H]2COC[C@@]2(CNS(=O)(=O)C2CC2)C1,34
COCC(C)(C)C(=O)N1CCC(Cc2n[nH]c(=O)n2-c2ccccc2)CC1,2
Cc1cccc(CN2CCC(CNc3nc(-c4ccc(Cl)cc4)nc4ccccc34)CC2)c1,-60
CC1(C(=O)N2CCCn3nnc(Cn4cccc4)c3C2)CC1,3
CSc1nc(-c2ccc(Cl)cc2)nn1S(=O)(=O)c1ccc(NC(C)=O)cc1,121
Cc1noc(C)c1S(=O)(=O)Nc1ccc2c(c1)C(=O)N([C@H](C)CO)C[C@@H](C)[C@@H](CN(C)C(=O)NC1CCCCC1)O2,-10
Cc1cc(C)nc(SCc2ccc(C(=O)N3CCCC3c3ccccn3)o2)n1 (stereo not given),4
Cc1ccc(CN2CCN(c3ncc(C)c(N(C)C)n3)CC2=O)cc1,-85*
CCCNC(=O)N1C[C@H](O)COC[C@@H]2O[C@@H](CC(=O)OC)CC[C@H]21,-19
CN(C)C(=O)N1CCO[C@@H]2[C@H]1CC[C@H]2OCC1CCOCC1,-72*
COc1ccc(C(=O)CCC(=O)N2C[C@H]3C[C@H](O)[C@@H](O)C[C@H]3C2)cc1,2
CN(C)CC(=O)N1CC2(C1)[C@@H](c1ccccc1)[C@@H](CO)N2C(=O)C1CC1,-5
CN1CCCC2(CC1)CCN(C(=O)c1nc3ccccc3[nH]c1=O)CC2,60
CN(C)S(=O)(=O)N1CCC[C@]2(C[C@@H](OCC3CC3)CO2)C1,-1
CCS(=O)(=O)Nc1ccc2c(c1)C(=O)N(C)[C@H]1CC[C@@H](CC(=O)NC3CCCCC3)O[C@H]1CO2,18
CSc1ncccc1C(=O)N(Cc1ccccn1)CC(C)C,27
CO[C@@H](CN(C)CC1CCOCC1)[C@H](C)CN(C(=O)Nc1ccc(F)cc1)[C@H](C)CO,51
CC(C)c1cc(C(C)C)c(S(=O)(=O)NCCCO)c(C(C)C)c1,-33
Cc1noc(C)c1C1CCCN1C(=O)c1ccc(-c2nnn(C)n2)cc1 (stereo not given),4
CCc1ccc(Nc2nc(C(=O)N3CCCCCC3)nc3ccccc23)cc1,-61
C[C@H](CO)N1C[C@H](C)[C@@H](CN(C)C)Oc2ccc(NS(C)(=O)=O)cc2C1=O,-18
Cc1ccc(C(=O)NCCc2sc(-c3cccc(F)c3)nc2C)cc1,-1
CCc1ccccc1Cn1c(=O)oc2cccnc21,59
CC(C)OC(=O)c1cc2c(ccn2-c2ccc(F)cc2)n1Cc1ccc2ccccc2n1,142
COc1ccc(CN2CC[C@H]3[C@@H](CO[C@H]3CC(=O)NC3CC3)C2)cc1,2
Clc1ccc(SCc2nn[nH]n2)cc1,-4
O=C(C[C@H]1C=C[C@@H](NC(=O)c2ccc3c(c2)OCO3)[C@@H](CO)O1)NC1Cc2ccccc2C1,-6

A different layout for four compounds above:
CCN1C(=O)CCc2cc(NC(=O)c3ccc(F)c(Cl)c3)ccc21
- Tgondii IFNg: -37
CC(C)NC(=O)N1[C@H](CO)[C@@H](c2ccccc2-c2ccc(F)cc2)[C@@H]1C#N
- Tgondii IFNg: 10
CCCCN(Cc1ccccc1)C(=O)c1cc2cccnc2n(Cc2ccc(F)cc2)c1=O
- Tgondii IFNg: 20
C[C@@H]1CCCCO[C@H](CN(C)S(=O)(=O)c2ccc(F)cc2)[C@@H](C)CN([C@@H](C)CO)C(=O)c2cc(N(C)C)ccc2O1
- Tgondii IFNg: i

Not all compounds are listed; the hit share may differ from the screen's.
